YjeE inh: displaces an ADP probe from E. coli YjeE (TsaE); 71,000 compounds, 0.05% hits; P0AF67; Potency, µM; purified YjeE, fluorescence polarisation of a bound ADP probe; active = well fitted falling curve; inconclusive = weaker or top-dose-only fall, or a rising curve; inactive = flat or poorly fitted curve;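 also: top concentration of the series not given in the record; excess ADP was the control for the full effect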
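Purified YjeE (10 uM) with BODIPY Texas Red-labeled ADP probe (2 uM); compounds pin-transferred, 15 min at room temperature. Binding inhibition read as decreased fluorescence polarization; ADP titration as control.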
Bst PK mod: alters activity of Bacillus stearothermophilus pyruvate kinase; AID 361; 51,000 compounds, 1.2% hits; partly purified Bacillus stearothermophilus pyruvate kinase, luminescence ATP production; ribose 5-phosphate activator present at AC10; Potency, µM; in the data active means potency below about 11 µM; inconclusive means mostly about 12 µM to 25 µM; inactive means weaker than that;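 the screen sought inhibitors and activators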;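 also: potency is read from the fitted curve at half-maximal effect; scaled between full activation by ribose 5 phosphate and full inhibition by luteolin; about four in five hits inhibit and the cells do not say which; series up to 57 µM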
* = called active by the depositor; i = inactive; ? = inconclusive; nt = not tested or not shown. Only part of the results is shown, so the mix of outcomes need not match the whole.

Screens in order – YjeE inh	Bst PK mod
1: CCOC(=O)N1CCN(C(=O)CSCC(=O)Nc2nc(-c3cccs3)cs2)CC1
  i	>57
2: COc1cccc(-c2nc(NCc3cccnc3)c3ccccc3n2)c1
  i	nt
3: O=C(O)c1ccc(C(=O)c2ccccc2)c(C(=O)O)c1
  i	nt
4: COc1ccc(N2CCN(C(=O)c3cc4c(-c5cccc(OC)c5)nn(C)c4s3)CC2)cc1
  i	>57
5: CCc1ccccc1NC(=O)CN1CCC(NC(=O)COC)CC1
  i	>57
6: CCCC[C@@H]1C[C@H]1C(NC(=O)c1ccccc1)c1ccccc1C(F)(F)F (some centres undefined)
  i	nt
7: CCOC(=O)c1c(NC(=O)CSc2nnnn2C)sc(C)c1-c1ccc(C)cc1
  i	>57
8: O=C(CSc1nnc(-c2ccccc2)o1)N1CCc2ccccc2C1
  i	i
9: COc1ccc(NC(=O)c2ccc(N(C)S(C)(=O)=O)cc2)cc1OC
  i	nt
10: Cc1ccc(S(=O)(=O)NCC(=O)N(CC(=O)NCC2CCCO2)C2CCCC2)cc1 (centres undefined)
  i	>57
11: O=C(CN1C(=O)CCS(=O)(=O)c2ccccc21)NCc1ccccc1
  i	>57
12: CCOc1ccc(C(=O)Nc2nnc(C)s2)cc1OCC
  i	nt
13: Cc1c(-c2ccccc2)oc2c(C(=O)OCCN3CCCCC3)cccc2c1=O
  i	nt
14: CNc1nc(SCc2ccccc2)nc(N2CCOCC2)n1
  i	>57
15: COc1ccc(S(=O)(=O)C(C#N)c2nc3ccccc3nc2N2CCCCC2)cc1 (centres undefined)
  i	>57
16: O=P(c1cccs1)(c1cccs1)c1cccs1
  i	nt
17: C/C(Cl)=C/Cn1c(SC(C)C)nc2c1c(=O)[nH]c(=O)n2C
  i	>57
18: COc1ccccc1Nc1nc2ccccc2[nH]1
  i	nt
19: Cc1cc(C)c(C#N)c(SC2CCCCC2=O)n1 (centres undefined)
  i	>57
20: COCCn1c(SCC(=O)c2ccccc2)nc2c(c1=O)SC(C)C2 (centres undefined)
  i	>57
21: COc1ccc2c(c1)c(=O)oc1cc(OCC(=O)N3CCC(C)CC3)ccc12
  i	>57
22: O=C(NC1CC1)C1CCCN1S(=O)(=O)c1ccc2ccccc2c1 (centres undefined)
  i	nt
23: CC1(C)Cc2nc(N3CCOCC3)c(C#N)cc2CO1
  i	>57
24: CCOC(=O)N1CCN(c2c(NCCc3ccc(OCC)c(OCC)c3)c(=O)c2=O)CC1
  i	>57
25: CCOC(=O)CN1C(=O)C(O)(CC(=O)c2ccco2)c2ccccc21 (centres undefined)
  i	nt
26: O=C(/C=C\c1ccc(O)cc1)c1ccc(O)cc1O
  i	nt
27: Cc1ccc(S(=O)(=O)N2CCCN(S(=O)(=O)c3ccc4c(c3)OCCO4)CC2)cc1
  i	>57
28: COc1ccccc1S(=O)(=O)Cc1ccc(C(=O)N2CCN(c3ccc(C)cc3)C(C)C2)o1 (centres undefined)
  i	nt
29: COCCn1c(=S)[nH]c2cc(C(=O)N3CCN(c4ccccc4OC)CC3)ccc2c1=O
  i	>57
30: O=C(CN1CCN(C(=O)c2ccco2)CC1)Nc1ccccc1-c1ccccc1
  ?	nt
31: Cc1nnc(Nc2ccc(C(=O)N3CCOCC3)cc2)c2ccccc12
  i	>57
32: COC(=O)COc1ccc(S(=O)(=O)Nc2ccc(C(N)=O)cc2)cc1Cl
  i	>57
33: COC(=O)c1[nH]c2ccccc2c1NC(=O)CCN1CCSCC1
  i	>57
34: CCOCc1nnc(NC(=O)c2cccs2)s1
  i	>57
35: CCSc1nc2c(c(=O)[nH]c(=O)n2C)n1Cc1ccc(Cl)cc1
  i	>57
36: Cc1cc2c(c(=O)n1CCN(C)C)C(c1ccccc1Br)C(C#N)=C(N)O2 (centres undefined)
  i	>57
37: O=c1cnc2cnc(Oc3ccccc3)nc2n1Cc1ccc(F)cc1
  i	nt
38: CCn1c2ccccc2c2cc(NC(=O)COC(=O)C3CCC(=O)N3)ccc21 (centres undefined)
  i	nt
39: O=c1cc(N2CCN(c3cccc(Cl)c3)CC2)[nH]c(=O)n1C1CCCCC1
  i	>57
40: Cc1cc2nc(-c3ccco3)cc(C(F)(F)F)n2n1
  i	nt
41: CCOC(=O)C1CCCN(C(=O)CNS(=O)(=O)c2ccc(Br)s2)C1 (centres undefined)
  i	>57
42: Cn1c(N)c(C(=O)COC(=O)c2ccco2)c(=O)n(C)c1=O
  i	>57
43: CCOC(=O)Cc1nnc(NC(=O)COc2ccc(C)cc2)s1
  i	>57
44: C[C@@H](C(=O)Nc1ccc2ccccc2c1)[C@@H]1C[C@@]1(C)[C@@H](N)c1ccccc1
  i	nt
45: Cc1oc2ccc(OCc3ccc(F)cc3)cc2c1C(=O)O
  i	>57
46: CCC(=O)Nc1ccccc1Oc1ccccc1
  i	>57
47: CCOC(=O)C1CCN(C(=O)c2ccc(Cl)c(S(=O)(=O)N3CCOCC3)c2)CC1
  i	>57
48: O=C(NCC1CCCO1)c1ccc(S(=O)(=O)N2CCCCC2)cc1 (centres undefined)
  i	>57
49: CSc1ccccc1NC(=O)c1cccnc1
  i	>57
50: COc1ccc(-c2cc(C(F)(F)F)nc(SCC(=O)Nc3cc(C)on3)n2)cc1OC
  i	>57
51: COc1ccc(N2CCN(/C(=N\S(=O)(=O)c3ccccc3)Nc3nc(C)cc(C)n3)CC2)cc1
  i	>57
52: O=S(=O)(c1ccccc1)c1ccc(NCc2ccco2)cc1
  i	nt
53: O=C1C2C3C=CC(C3)C2C(=O)N1CC1CCCO1 (centres undefined)
  i	>57
54: COc1cccc2cc(C(=O)N3CCN(C/C=C/c4ccccc4)CC3)c(=O)oc12
  i	>57
55: O=C(NCCCN1CCOCC1)NC12CC3CC(CC(C3)C1)C2
  i	nt
56: Cn1cccc1C(=O)OCC(=O)Nc1ccc2c(c1)CCC2
  i	>57
57: N#C/C=C1\n2c(nc3ccccc32)OC12CCCCC2
  i	>57
58: CCOc1ccc(NC(=O)c2oc3ccccc3c2NC(=O)C2CC2)cc1
  i	>57
59: CNC(=O)c1ccccc1
  i	nt
60: COC(=O)[C@@]1(Cc2ccc(F)cc2)[C@@H]2C(=CC(=O)[C@H]2CC(=O)C(=O)N2CCCC2)CN1C(=O)c1ccccc1
  i	nt

Further entries follow:
Screens in order – YjeE inh	Bst PK mod
61: Cc1ccc(C)c(OCC(O)CN2C(C)CCCC2C)c1 (centres undefined)
  i	>57
62: CC1(C)CC(=O)C=C(N2CCN(C3=CC(=O)CC(C)(C)C3)CC2)C1
  i	>57
63: CCOC(=O)c1c(C)[nH]c(C)c1C(=O)CN1C(=O)NC(CC(C)C)C1=O (centres undefined)
  i	>57
64: CCC(=O)N1CCc2cc(S(=O)(=O)CCC(=O)NCc3cccs3)ccc21
  i	>57
65: COc1cccc(C2/C(=C(\O)c3ccc4c(c3)OCCO4)C(=O)C(=O)N2CCCN(C)C)c1OC (centres undefined)
  nt	>11
66: N#Cc1ccccc1-c1ccc2ncnc(NCc3ccccc3)c2c1
  i	nt
67: CCOC(=O)N1CCN(C(=O)c2ccc3c(=O)n(Cc4ccc(Cl)cc4)c(=S)[nH]c3c2)CC1
  i	>57
68: CN(C)c1ccc(C2CC(=O)NC3=C2C(=O)CC(C)(C)C3)cc1 (centres undefined)
  i	nt
69: COc1cccc(C(c2sc3ncnn3c2O)N2CCc3ccccc3C2)c1 (centres undefined)
  i	nt
70: COCCn1c(=O)cnc2cnc(N3CCNCC3)nc21
  i	nt
71: COc1ccc(C(=N/O)/C(=N/O)c2ccc(OC)cc2)cc1
  i	nt
72: COc1cccc(CNC(=O)C2CCCN(S(C)(=O)=O)C2)c1 (centres undefined)
  i	>57
73: COc1ncc2nc(CCc3ccccc3)c(=O)n(-c3ccccc3)c2n1
  i	nt
74: O=C(Nc1nc2c(s1)CCc1ccccc1-2)c1ccco1
  i	nt
75: CS(=O)(=O)N(CC(=O)NCc1ccc2c(c1)OCO2)c1ccccc1
  i	>57
76: CCC(C(=O)OCCN(CC)CC)c1ccccc1 (centres undefined)
  nt	>26
77: Cc1cccc(CN2CCN(CC(=O)O)C2=O)c1
  i	>57
78: CCOc1ccc(NC(=O)CSc2nnc(COc3c(C)cccc3C)o2)cc1
  i	nt
79: CCN(CC)S(=O)(=O)c1cccc(-c2nnc(SCCOc3ccccc3C)o2)c1
  i	>57
80: CCCc1cc(=O)oc2cc(C)c3c(C)coc3c12
  i	nt
81: O=C(CC1(O)C(=O)N(CCc2ccccc2)c2ccccc21)c1ccco1 (centres undefined)
  i	nt
82: COC(=O)c1c(-n2cnnn2)sc(C)c1C
  nt	?
83: CCSc1nsc(SCC)c1C(N)=O
  i	nt
84: Cc1cccc2cc(CN(CC3CCCO3)C(=O)c3cnccn3)c(=O)[nH]c12 (centres undefined)
  i	>57
85: Nc1nc(C(=O)N2CCOCC2)nn1S(=O)(=O)c1ccc(Cl)cc1
  i	>57
86: O=C(CCCNS(=O)(=O)c1cccs1)N1CCc2ccccc2C1
  i	>57
87: CC(C)c1ccccc1
  i	nt
88: CCSc1nnc(-c2cccs2)o1
  i	>57
89: COc1ccc(C2(CNC(=O)c3ccc(Br)o3)CCOCC2)cc1
  i	>57
90: Cc1cccc2nc(Cn3c(=O)n(CCC(=O)NCc4ccco4)c(=O)c4ccccc43)cc(=O)n12
  i	>57
91: O=C(O)[C@@H]1[C@@H]2C[C@H]([C@@H](Br)[C@H]2N2C(=O)CCC2=O)[C@@H]1C(=O)O
  i	nt
92: CCOC(=O)C(CC)Sc1nc2c(c(=O)[nH]c(=O)n2C)n1CCc1ccccc1 (centres undefined)
  i	>57
93: CCCn1c(SCC(=O)c2ccc3c(c2)OCCO3)nnc1C(C)C
  i	>57
94: CC(=O)N1CCc2cc(S(=O)(=O)CCC(=O)Nc3cccc(F)c3)ccc21
  i	>57
95: CCOC(=O)CC(NC(=O)c1ccco1)c1ccccc1Cl (centres undefined)
  i	>57
96: O=[n+]1cc(-c2cc3ccccc3o2)n([O-])c2c1CCCC2
  i	>11
97: O=C(CCSc1nnnn1-c1ccccc1)N1CCOCC1
  i	>57
98: O=C(CC1Oc2ccccc2NC1=O)NCCCN1CCN(C2CCCCC2)CC1 (centres undefined)
  i	nt
99: CCCCn1c(N)c(N(CCOC)C(=O)CSc2nc3ccc(C)cc3[nH]2)c(=O)[nH]c1=O
  i	>57
100: COc1cccc(Cn2c(=O)c(C)nc3cnc(Nc4cccc(OC)c4)nc32)c1
  i	nt
101: COc1ccc(C(=O)NCCc2nnc(SCC(=O)Nc3ccccc3)n2C)cc1
  i	>57
102: CC(CC(=O)O)CC1=NS(=O)(=O)c2ccccc2N1 (centres undefined)
  i	>57
103: COc1ccc(S(=O)(=O)N2CCCC(C(=O)NCc3ccccn3)C2)cc1Cl (centres undefined)
  i	>57
104: O=c1c[n+](CC[n+]2cc(=O)o[nH]2)[nH]o1
  i	nt
105: C=CC(=O)OCC(CO)(COC(=O)C=C)COC(=O)C=C
  i	nt
106: c1ccc(-c2nnc(SCc3nc4ccccc4[nH]3)o2)cc1
  i	nt
107: CCCCSCCCNC(=O)Nc1cccc(OC)c1
  i	>57
108: COC(=O)c1ccccc1NC(=O)CSc1nnc(-c2cccc(NC(C)=O)c2)n1C
  i	nt
109: CCOC(=O)c1cnc(C(C)(C)C)[nH]c1=O
  i	>57
110: Cc1cnc(CNc2nc(-c3ccc(C(=O)N(C)C)cc3)nc3ccccc23)cn1
  i	nt
111: CC1(C)CC(=O)C=C(N2CCNCC2)C1
  i	>57
112: Cn1nnnc1SCC(=O)Nc1ccccc1-c1ccccc1
  i	nt
113: CCOc1cc(C#N)c(NC(=O)c2ccnn2C)cc1OCC
  i	nt
114: CCOC(=O)C1CCCN(C(=O)c2cnn3c(C(F)F)cc(-c4ccc(C)cc4)nc23)C1 (centres undefined)
  i	>57
115: CC1=C(C(=O)Nc2ccccn2)C(c2ccc(Br)cc2)n2ncnc2N1 (centres undefined)
  i	>57
116: N#Cc1c2n(c3c(=O)[nH]cnc13)CCCC2
  i	nt
117: O=C(O)c1ccc2nc(C(F)(F)F)[nH]c2c1
  i	>57
118: CCCCC(=O)NC(Nc1cc(C)ccn1)(C(=O)OCC)C(F)(F)F (centres undefined)
  i	>57
119: O=C(NCC1CCCO1)C1CCN(C(=O)c2ccc(Br)cc2)CC1 (centres undefined)
  i	>57
120: O=C(CSc1nnc(-c2cccnc2)n1C1CCCCC1)NC1CCCCC1
  i	>57

Reformatted in markdown: two of the compounds above.
| # | Structure | YjeE inh | Bst PK mod |
| --- | --- | --- | --- |
| 113 | CCOc1cc(C#N)c(NC(=O)c2ccnn2C)cc1OCC | i | nt |
| 119 | O=C(NCC1CCCO1)C1CCN(C(=O)c2ccc(Br)cc2)CC1 (centres undefined) | i | >57 |

(further entries)
Screens in order – YjeE inh	Bst PK mod
121: CCOC(=O)C1CCN(CC(=O)N2C(C)CCCC2C)CC1 (centres undefined)
  i	>57
122: O=C1N=C(O)CN1/N=C\c1ccc(-c2ccc([N+](=O)[O-])cc2)o1
  i	nt
123: COC(=O)C(C)NC(=O)C12CC3CC(CC(C3)C1)C2 (centres undefined)
  i	>57
124: O=C(c1cc(Cl)cc(Cl)c1)N1CCOCC1
  i	>57
125: CC(C)=CCc1c2c(c3occ(-c4ccc(O)c(O)c4)c(=O)c3c1O)C=CC(C)(C)O2
  i	nt
126: COCCCNC(=O)COc1ccc(S(=O)(=O)Nc2ccccc2)cc1
  i	>57

Quoted at random: four entries already listed
Screens in order – YjeE inh	Bst PK mod
14: CNc1nc(SCc2ccccc2)nc(N2CCOCC2)n1
  i	>57
88: CCSc1nnc(-c2cccs2)o1
  i	>57
23: CC1(C)Cc2nc(N3CCOCC3)c(C#N)cc2CO1
  i	>57
102: CC(CC(=O)O)CC1=NS(=O)(=O)c2ccccc2N1 (centres undefined)
  i	>57
